Screening data (PubChem)
SARS PLP yeast = qHTS of Yeast-based Assay for SARS-CoV PLP | Potency, µM (highest dose often 32.9 µM), for inactives: top-dose activity, positive = growth rescue | 0.19% of 330,000 active | AID 485353, 2010 | S. cerevisiae expressing SARS-CoV PLpro, growth rescue; control for the full effect not named in the record; active means well fitted rising curve with a large enough effect; inconclusive means small, poorly fitted or top-dose-only effect; inactive means no such curve, though single readings can be large or run the other way; further: 0% is about no effect; nearly all actives have a fitted effect of over 55% in size; growth read by luminescence after 48 h
NS1 inh = qHTS Assay for Inhibitors of Influenza NS1 Protein Function; S. cerevisiae slowed by influenza A NS1, growth recovery by OD600; Potency, µM (series often up to 46.1 µM), for the others: top-dose activity, positive = more growth; 0.4% of 270,000 active; active means well fitted rising curve with a large enough effect; inconclusive means small, poorly fitted or top-dose-only effect; inactive means no such curve, though single readings can be large or run the other way; further: nearly all actives have a fitted effect of over 50% in size
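Compounds were scored for reversing the slow growth caused by influenza A NS1 in S. cerevisiae, measured by optical density at 600 nm. Assay medium contained 2% galactose at pH 6.0; NS1-free yeast of the same strain were the positive control.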
RE007 growth inh = qHTS Assay for Inhibitors of the HIV-1 protein Vpr; 0.21% of 360,000 active; S. pombe RE007 Vpr strain, BacTiter-Glo ATP luminescence, 24 h; control for the full effect not named in the record; Potency, µM (doses to about 92.2 µM), inactives show at the top dose activity change, negative = less growth; active = well fitted falling curve with a large enough effect; inconclusive = small, poorly fitted or top-dose-only effect; inactive = no such curve, though single readings can be large or run the other way;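 further: on the % scale 0 is the no-effect control and ±100 the full control effect; nearly all actives have a fitted effect of over 50% in size; the assay follows cell death caused by Vpr and the record does not say whether a fall means rescue or toxicity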
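Fission yeast RE007 carrying one integrated HIV-1 vpr copy, seeded at OD 0.01 in PMG+AL medium with 23 nL pinned compound. Grown 24 h at 30 degrees; viability read by BacTiter-Glo luminescence after 5 min.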
StopGo reporter = High Throughput Screening for Foot and Mouth Disease Virus Antivirals; 1.2% of 410,000 active; human cells with a luciferase reporter of 2A StopGo recoding; control for the full effect not named in the record; AID 1159524, 2015; Potency, µM (doses to about 57.9 µM), without a hit: at the highest dose signal change, negative = less light; active = well fitted falling curve with a large enough effect; inconclusive = small, poorly fitted or top-dose-only effect; inactive = no such curve, though single readings can be large or run the other way; tested in HEK293T cells; further: on the % scale 0 is the no-effect control and ±100 the full control effect; nearly all actives have a fitted effect of over 45% in size; luciferase light after 4 h
Lassa entry inh = qHTS for Inhibitors of binding or entry into cells for Lassa Virus | Lassa virus pseudotype entry inhibition, cell reporter; control for the full effect not named in the record | AID 540256, 2011 | 1.2% of 300,000 active | Potency, µM (highest dose often 37.9 µM), for inactives: at the top dose activity change, negative = inhibition, hits mostly inhibitors; active means well fitted inhibition curve with a large enough effect; inconclusive means small, poorly fitted or top-dose-only effect, or effect the other way; inactive means flat fitted curve, though single readings scatter; tested in HEK293 cells; further: on the % scale 0 is the no-effect control and ±100 the full control effect; nearly all actives have a fitted effect of over 50% in size; luciferase read-out
Cruzain inh Det = qHTS Assay for Promiscuous and Specific Inhibitors of Cruzain (with detergent). Cruzipain (Trypanosoma cruzi), P25779. purified cruzain, Z-FR-AMC fluorescence, 0.01% Triton. 0.43% of 200,000 active. Potency, µM, inactives show max response, negative = inhibition, most hits filed as inhibitors. AID 1478, 2009;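 further: plate controls were neutral wells for no effect and buffer without enzyme for full effect; nearly all actives have a fitted effect of over 40% in size; top concentration of the series not given in the record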
Target sequence (P25779 123-467 limits assumed): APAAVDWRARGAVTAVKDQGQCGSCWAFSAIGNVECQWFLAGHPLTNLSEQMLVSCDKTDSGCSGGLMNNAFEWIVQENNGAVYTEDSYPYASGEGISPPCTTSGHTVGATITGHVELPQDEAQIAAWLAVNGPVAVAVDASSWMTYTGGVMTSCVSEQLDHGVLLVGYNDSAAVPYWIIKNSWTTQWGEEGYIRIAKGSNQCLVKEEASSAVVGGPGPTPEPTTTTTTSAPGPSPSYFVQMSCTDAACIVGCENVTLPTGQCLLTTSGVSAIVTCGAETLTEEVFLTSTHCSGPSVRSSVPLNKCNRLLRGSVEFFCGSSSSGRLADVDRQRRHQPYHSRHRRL
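Purified cruzain (1.5 nM final) was preincubated with compounds for 15 min at room temperature in 100 mM sodium acetate pH 5.5, 5 mM DTT, 0.01% Triton X-100. Reaction started with 2 uM Z-FR-AMC; AMC fluorescence change over 60 s gave activity.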
Cruzain inh noDet = qHTS Assay for Promiscuous and Specific Inhibitors of Cruzain (without detergent). 2.3% of 200,000 active. AID 1476, 2009. Cruzipain (Trypanosoma cruzi), P25779. Potency, µM, inactives show max response, negative = inhibition, hits mostly inhibitors. purified cruzain, Z-FR-AMC fluorescence, no detergent;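 further: plate controls were enzyme without inhibitor for no effect and buffer without enzyme for full effect; nearly all actives have a fitted effect of over 40% in size; top concentration of the series not given in the record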
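Purified cruzain at 1.5 nM, pre-incubated 15 min with compound at room temperature in 100 mM sodium acetate pH 5.5, 5 mM DTT, 0.00005% Triton X-100. Reaction started with 2 uM Z-FR-AMC; AMC fluorescence increase over 60 s gives rate.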
Marburg entry inh = qHTS for inhibitors of binding or entry into cells for Marburg Virus; 1.8% of 300,000 active; AID 540276, 2011; Potency, µM (highest dose often 37.8 µM), for inactives: at the highest dose activity change, negative = inhibition, usual class: inhibitors; Marburg virus pseudotyped entry inhibition, cell reporter; control for the full effect not named in the record; about a third of the inactives were read at about 46 µM; active = well fitted inhibition curve with a large enough effect; inconclusive = small, poorly fitted or top-dose-only effect, or effect the other way; inactive = flat fitted curve, though single readings scatter; tested in HEK293 cells; about a fifth of its hits are not listed in these tables; further: on the % scale 0 is the no-effect control and ±100 the full control effect; luciferase read-out
* hit, by the source's call; ? = inconclusive; · = not tested or not shown; & = joins results of further samples; [ ] = remark or other dose. Unless noted, the call rests on the fitted dose curve; in most records, active means well fitted curve in the direction sought with a large enough effect; inconclusive means small, poorly fitted or top-dose-only effect, or another doubt; inactive means no such curve, though single readings can be large; an effect the other way counts as inactive or inconclusive. Potency means the concentration at half of the fitted maximal effect.

SMILES | SARS PLP yeast | NS1 inh | RE007 growth inh | StopGo reporter | Lassa entry inh | Cruzain inh Det | Cruzain inh noDet | Marburg entry inh
COc1ccc(CC(=O)NNS(=O)(=O)c2ccc3ccccc3c2)cc1OC | -2% | -11% | -2% | 8% | -13% | 0.3% | -1% | -13%
Cc1nn(C(C)C(=O)N2CCN(c3ccccn3)CC2)c(=O)c2cc3occc3n12 (stereo not given) | · | -4% | -2% | -26% | 2% | -2.1% | -8% | -2%
CCCCc1nc2cc(C(=O)NCc3ccccn3)ccc2o1 | -8% | 1% | 14% | 23% | · | · | · | ·
CN(CC(=O)Nc1ccc(Cl)c(C(F)(F)F)c1)C(=O)CCN1C(=O)C2CCCCC2C1=O (stereo not given) | -6% | · | 12% | -16% | -16% | · | · | ?
Cc1ccc(-n2nc3c(c2NC(=O)c2ccccc2Br)CS(=O)C3)cc1 (stereo not given) | 0% | 2% | -4% | -14% | · | 2.3% | 2% | ·
CC(c1nnc(SCC(=O)N2CCc3ccccc32)n1-c1ccc(Cl)cc1)N(C)C (stereo not given) | -1% | 15% | 8% | -15% | 10% | -4.4% | -9% | -19%
O=C(O)C1CC(=O)N(c2ccc3c(c2)OCCO3)C1 (stereo not given) | 12% | 5% | -26% | -5% | -10% | 4.5% | -7% | 17%
CCCNC(=O)c1nn2c(C(F)(F)F)cc(-c3ccccc3)nc2c1Cl | -2% | 19% | 0% | -21% | ? | · | · | 2%
C#Cc1ccc([C@H]2C=C(C(=O)N3CCN(Cc4ccc5c(c4)OCO5)CC3)O[C@@H](OCc3ccc(CO)cc3)C2)cc1 | -1% | 4% | -13% | -23% | · | · | · | ·
Cc1ccc(Cl)cc1NC(=S)N(CCN(C)C)C(C)c1ccccn1 (stereo not given) | -3% | · | -6% | -1% | -13% | · | · | ?
CCOc1ccccc1CNC(=O)CCN1C(=O)COc2ccccc21 | 1% | -10% | 3% | -10% | 6% | 2.1% | 6% | 0%
Cn1nc(C(F)(F)F)c2cc(C(=O)Nc3ccc(F)c(Cl)c3)sc21 | -1% | -7% | -11% | ? | ? | · | · | ?
COCCn1c(SCC(=O)Nc2ccc(N3CCOCC3)cc2)nc2ccccc21 | 13% | 4% | 9% | -8% | -22% | -2.0% | 7% | -11%
COC(=O)c1ccccc1NC(=O)c1ccccc1N(C)S(C)(=O)=O | 2% | 0% | -15% | -6% | 2% | 7.8% | 17% | 8%
Cc1cccc2sc(NC(=O)C3CCCO3)nc12 (stereo not given) | -16% | -9% | -19% | · | -17% | 0.6% | -1% | 24%
Cc1ccc(O)c(C)c1 | 5% | · | -1% | -16% | · | 4.3% | -13% | ·
O=C(O)CCC(=O)Nc1nc2ccc([N+](=O)[O-])cc2s1 | 2% | · | 3% | -3% | -16%[46.1 µM] | · | · | ?
COc1ccc(C(C(=O)NC(C)(C)C)N(CCC(C)C)C(=O)CCC(=O)Nc2cc(C)on2)cc1 (stereo not given) | -2% | -3% | 0% | -5% | ? | · | · | ?
CSCCC1NC(=O)N(CC(=O)Nc2cccc3ccccc23)C1=O (stereo not given) | 1% | 18% | -18% | -6% | -8% | 4.8% | 5% | -2%
CCOC(=O)/C(=N\Nc1ccccc1[N+](=O)[O-])c1csc(Nc2ccccc2)n1 | 2% | 13% | 9% | -25% | ? | · | · | ?
COc1cccc(C(=O)NCCC(=O)NCc2cc(=O)n(C)c(=O)n2C)c1 | 2% | 16% | 12% | 28% | · | · | · | ·
O=C1NC(N2CCOCC2)=N/C1=C/c1ccc2c(c1)OCO2 | -7% | · | -7% | 9% | -10% | · | · | 5%
Cc1cccc(OCC(=O)N2CCCc3ccccc32)c1 | -1% | -5% | -3% | -9% | 22%[46.1 µM] | · | · | -18%[46.1 µM]
O=C(Nc1ncc(Cc2ccc(SC(F)F)cc2)s1)c1ccccc1 | -8% | 28% | 20% | -17% | ? | -4.1% | -4% | -4%
Cc1cc(C(=O)Nc2ccccc2C(=O)O)ccc1NC(=O)COc1cccc([N+](=O)[O-])c1 | 1% | -3% | 6% | 33%[activator] | 3%[46.1 µM] | · | · | 3%[46.1 µM]
Cc1ccc2cc(C)c(NCCO)nc2c1 | 2% | 1% | -1% | -8% | 16% | -5.0% | 3% | ?
S=c1[nH]nc(-c2ccc3c(c2)OCO3)n1-c1ccccc1 | -2% | 29% | 21% | -7% | 5% | -1.9% | -16% | 0%
COc1ccccc1C(=O)Nn1c(-c2cccs2)nc2ccccc2c1=O | 1% | 11% | 4% | ? | 12% | -2.7% | 10% | -26%
Cc1ccnc(NS(=O)(=O)c2cccc3nsnc23)c1 | 0% | -9% | 14% | 32%[activator] | -1% | 2.5% | -11% | 2%
CCOc1ccc(NCc2cccn2-c2nnc(N3CCC(C(=O)NCCCN4CCCCC4CC)CC3)s2)cc1 (stereo not given) | -3% | -12% | 5% | -7% | · | · | · | ·
CCCCNC(=O)N1CCN(c2ncccn2)CC1 | 0% | -2% | 12% | -4% | 20% | · | · | -4%
O=C(CCc1nnc2ccc(N3CCC4(CC3)OCCO4)nn12)NCc1ccc(F)cc1 | 18% | 2% | -3% | -1% | · | · | · | ·
CN(C)C(=O)Oc1ccc2c(c1)O/C(=C\c1ccc(Cl)cc1)C2=O | -1% | 5% | -10% | 51%[activator] | · | · | · | ·
COCc1nc2c([nH]1)c(=O)n(C)c(=O)n2CC(C)C | · | 0% | 9%[18.4 µM] | -19% | 5% | -3.7%&-2.0% | -14%&6% | ?
O=C1CS/C(=C\S(=O)(=O)c2ccc(Cl)cc2)N1 | 0% | 1% | -2% | -14% | -16% | -3.2% | -10% | -6%[46.1 µM]
O=C1c2ccccc2C(Nc2ccc(S(=O)(=O)N3CCOCC3)cc2)N1c1cccnc1 (stereo not given) | 3% | -20% | -6% | 0% | · | 0.4% | -2% | ·
O=S(=O)(c1cccc(Cl)c1Cl)N1CCCCC1 | -2% | 1% | -6% | -11% | 2% | -6.2% | -1% | 5%
Cc1cc(-c2nc3cccnc3s2)ccc1NS(=O)(=O)c1ccc2c(c1)OCCO2 | -3% | ? | 11% | 67%[activator] | · | -4.4% | ? | ·
Cc1ccc(CCNC(=O)c2cn(C)c3ccc(S(=O)(=O)N4CCC(C)CC4)cc3c2=O)cc1 | · | · | · | 8% | 2%[46.1 µM] | -0.3% | -7% | 1%[46.1 µM]
c1nnc(-c2ccc3c(c2)OCO3)o1 | 5% | · | -9% | 7% | 5% | · | · | 0%[46.1 µM]
COc1ccc(/C=C2/N=C(SCC(=O)Nc3cc(C)on3)N(c3ccccc3)C2=O)cc1 | 15% | -2% | 4% | -12% | -14% | 3.2% | 22% | -3%
COc1cc(NC(=O)CN(c2ccc(C)cc2)S(=O)(=O)c2c(C)nn(C)c2C)cc(OC)c1 | 5% | -27% | -5% | -27% | -2% | 2.1% | ? | -4%&-4%
Cc1cccc(C)c1-n1nnnc1C1(Nc2ccccc2)CCCCC1 | -38% | 1% | -18% | -15% | -11% | -3.4% | 2% | -28%
Cc1c(NC(=O)C(C)OC(=O)c2ccc(Cl)nc2)c(=O)n(-c2ccccc2)n1C (stereo not given) | 8% | 25% | · | -26% | 5% | -1.7% | 4% | 22%
COc1ccc(-c2nc(C)c(CCNC(=O)C(=O)Nc3ccccc3F)s2)cc1 | · | · | · | -29% | 10%[46.1 µM] | -0.8% | -12% | ·
CCCCSc1nnc([C@H](C)NC(=O)OC(C)(C)C)o1 | -12% | 0% | -15% | -6% | -2% | 6.0% | 12% | ?
Cc1ccc(CNC(=O)c2sc3nc[nH]c(=O)c3c2C)cc1 | · | · | · | -21% | -1%[46.1 µM] | 2.4% | 17% | ·
CCC1(C)Cc2c(sc3nc4n(c(=O)c23)CCCS4)CO1 (stereo not given) | · | -39% | -3% | -1% | 3% | · | · | -11%
CNc1nc2ccccc2n1CC(=O)c1ccccc1 | -5% | 18% | -7% | 19% | ? | · | · | 10%
O=C(O)C1=C[C@H](C2CC2)C[C@H](OCCCCO)O1 | 0% | 3% | 5% | -16% | · | · | · | ·
Following part:
SMILES | SARS PLP yeast | NS1 inh | RE007 growth inh | StopGo reporter | Lassa entry inh | Cruzain inh Det | Cruzain inh noDet | Marburg entry inh
COc1cc([N+](=O)[O-])cc(/C=N/NC(=O)C(C)Nc2ccccc2C)c1O (stereo not given) | 22µM* | 9% | · | -14% | -8% | -4.6% | 2% | ?
CCOc1ccc2nc(N3C(=O)/C(=C/c4ccccc4)NC3=S)sc2c1 | 3% | -17% | -13% | 27% | 13µM* | -1.7% | 13µM* | ?
CN1c2ccccc2N(C)C1(C)c1ccccc1 | -24% | ? | -13% | 0% | ? | -5.6% | 4% | ?
CC(C)(C)c1ccc(C(=O)N/N=C/c2ccc(OCCCF)cc2)cc1 | 0% | 3% | 3% | ? | · | · | · | ?
COc1ccc(C2/C(=C(/O)c3ccc(C)cc3)C(=O)C(=O)N2c2ccccn2)cc1OC (stereo not given) | 0% | ? | -11% | -13% | · | · | · | ·
CCN(Cc1ccccc1)C(=O)c1ccccc1C | -1% | -15% | -1% | 2% | 28%[14.3 µM] | 1.8% | 2% | 0%
O=C(c1ccc(Br)cc1)c1cc2ccc(O)cc2oc1=O | -7% | -83% | 1% | 23% | -16%[46.1 µM] | · | · | -2%[46.1 µM]
C=CCNC(=O)COC(=O)c1cccnc1Nc1ccccc1F | 1% | · | -2% | 15% | 26% | · | · | ?
COCCn1c(=NC(=O)c2ccc(S(=O)(=O)N3CCCc4ccccc43)cc2)sc2cc(S(C)(=O)=O)ccc21 | -5% | -1% | 13% | -10% | ? | -3.5% | -16% | 43%
O=C(/N=C1\NC(=O)C(F)(C(F)(F)F)S1)NC1CCCCC1 (stereo not given) | 3% | -30% | -6% | 0% | -9% | -1.5% | -20% | ?
O=c1c2c(-c3ccccc3)csc2ncn1/N=C/c1cccc([N+](=O)[O-])c1O | -21% | · | -25% | -5% | -9%[46.1 µM] | · | · | ?
